Screens deposited in PubChem BioAssay by National Center for Advancing Translational Sciences (NCATS).
DRD3 agonist = agonists of human D3 dopamine receptor. P35462. D3R DiscoveRx beta-arrestin cells, luminescence, 90 min. max activation, %. 410,000 compounds, 0.58% hits; in the data active = max activation above about 30%; note: 0% is about no effect; mostly tested at two doses, the higher about 12 µM
Target sequence (P35462 whole entry, looked up): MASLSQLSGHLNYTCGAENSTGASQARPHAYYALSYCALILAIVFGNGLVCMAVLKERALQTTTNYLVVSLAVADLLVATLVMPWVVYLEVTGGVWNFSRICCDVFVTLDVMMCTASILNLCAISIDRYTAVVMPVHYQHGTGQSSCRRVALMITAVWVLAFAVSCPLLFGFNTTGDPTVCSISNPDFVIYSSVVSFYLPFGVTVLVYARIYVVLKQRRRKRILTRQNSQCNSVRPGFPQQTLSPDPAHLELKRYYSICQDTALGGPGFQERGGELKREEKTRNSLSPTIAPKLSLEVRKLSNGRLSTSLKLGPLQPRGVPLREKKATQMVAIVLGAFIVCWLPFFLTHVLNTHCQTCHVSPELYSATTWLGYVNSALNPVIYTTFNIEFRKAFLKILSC
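Agonist-mode cell screen: cells plated at 1500/well and incubated overnight at 37 °C, then exposed to library compounds for 90 min at 37 °C. Detection reagent was added for 30–60 min at room temperature, and luminescence was read.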
GLP1R ag = agonists of human GLP-1 receptor. P43220. HEK293 GLP-1R CRE-luciferase, luminescence, 4-6 h; cells express a hypersensitive GLP-1R form. Potency, µM (doses to about 45.6 µM), for inactives: at the top dose activation, usual class: activators. 380,000 compounds, 0.007% hits. AID 624172; note: potency is the fitted concentration of half-maximal effect; % of control where 0% means no effect
D3 antag = antagonists of human D3 dopamine receptor; P35462; D3R cells, DiscoveRx beta-arrestin luminescence, antagonist mode; hits give low values; 360,000 compounds, 2.5% hits; max response, negative = inhibition, %; in the data active = max response below about -50%; inconclusive = no clear call, values can overlap the other calls; note: % is set by controls: 0 for no effect and ±100 for the full control effect; mostly tested at two doses, the higher about 12 µM
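Cells expressing the human receptor were seeded at 1500 cells/well, incubated overnight at 37 degrees C in 5% CO2, then exposed to library compounds with dopamine controls for 90 minutes at 37 degrees C before luminescent detection.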
GLP-1R inv ag = inverse agonists of human GLP-1 receptor | HEK293 GLP-1R CRE-luciferase, luminescence, 24 h; GLP-1R form is constitutively active | Potency, µM (doses to about 38.3 µM), inactives show top-dose activity change, negative = inhibition, most hits filed as inhibitors | 410,000 compounds, 1.6% hits; note: potency is the fitted concentration of half-maximal effect; % is set by controls: 0 for no effect and ±100 for the full control effect; nearly all actives have a fitted effect of over 55% in size
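Luminescence readout: a drop in cAMP-driven luciferase signal flags inverse agonism at a constitutively active GLP-1R stably expressed in HEK293. Compound exposure lasted 24 hr at 37 deg C, 5% CO2.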
PTHR1 agonist = PTHR1 (human) receptor agonism; HEK293 GP2 PTHR1 cells, GloSensor cAMP luminescence, 1 h; 410,000 compounds, 0.075% hits; AID 743266; Q03431; Potency, µM (highest dose often 115 µM), inactives show top-dose activation, usual class: activators; note: potency is the fitted concentration of half-maximal effect; nearly all actives have a fitted effect of over 55% in size; some results filed as inactive show a strong effect at the top dose; inactives centre near -15; many of its hits are not listed in these tables
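HEK-293-derived GP2 cells expressing PTHR1 and a GloSensor cAMP reporter, 3,000/well, plated overnight, given luciferin plus IBMX (each 0.5 mM as added) for 1 h at 37 °C, then compound for 1 h at 37 °C. Luminescence was read after 15 min at room temperature.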
Numbers without * were called inactive; & = joins results of further samples; [ ] = remark or other dose. Unless noted, calls come from the whole dose curve; as a rule, active = well fitted curve in the direction sought with a large enough effect; inconclusive = small, poorly fitted or top-dose-only effect, or another doubt; inactive = no such curve, though single readings can be large; an effect the other way counts as inactive or inconclusive. These rows are one share of the data. The share of hits here may be higher or lower than overall.

Screening O=C(O)C1CCN(S(=O)(=O)/C=C/c2ccccc2)CC1 returned DRD3 agonist 2, GLP1R ag 3%, D3 antag 9, GLP-1R inv ag 10% and PTHR1 agonist 13%.
Screening Cc1cc2ncn(CCCCOc3ccccc3)c2cc1C returned DRD3 agonist 17&28, GLP1R ag 11%, D3 antag -14, GLP-1R inv ag 10µM* and PTHR1 agonist -17%.
For Cc1ccc2nc(-c3ccc(NS(=O)(=O)c4ccc(F)cc4)cc3)sc2c1 the results were DRD3 agonist 10, GLP1R ag 7%, D3 antag 33, GLP-1R inv ag inconclusive and PTHR1 agonist -15%.
Cc1nn(-c2ccccc2)c(Cl)c1/C=N/NC(=O)c1ccncc1 was read as DRD3 agonist -7, GLP1R ag 16%, D3 antag -14, GLP-1R inv ag 9% and PTHR1 agonist -24%.
For COc1ccc(Cn2cc(C(=O)O)c(=O)c3ccccc32)cc1 the results were DRD3 agonist 6, GLP1R ag 8%, D3 antag -6, GLP-1R inv ag -10% and PTHR1 agonist inactive.
`CCN(CC)c1ccc2cc(C(=O)O)c(=O)oc2c1` gave DRD3 agonist -11, GLP1R ag 3%, D3 antag -20 and GLP-1R inv ag 5%.
Screening Cc1ccc(/C=C/C(=O)c2ccccc2)cc1 returned DRD3 agonist -3, GLP1R ag -9%, D3 antag -12, GLP-1R inv ag 4% and PTHR1 agonist -39%[inhibitor][57.5 µM].
For CC1=C/C(=C(/c2cc(C)c(O)c(Br)c2)c2ccccc2S(=O)(=O)O)C=C(Br)C1=O the results were DRD3 agonist -17, GLP1R ag -2%, D3 antag -60*, GLP-1R inv ag inconclusive and PTHR1 agonist -1%.
For CCCCNC(=O)CCn1c(=O)c2ccccc2n(Cc2cc(C)ccc2C)c1=O the results were DRD3 agonist 9&-9, GLP1R ag 0%&2%, D3 antag 2, GLP-1R inv ag 8%&23% and PTHR1 agonist inactive.
For C#C[C@]1(O)CC[C@H]2[C@@H]3CCC4=Cc5oncc5C[C@]4(C)[C@H]3CC[C@@]21C the results were DRD3 agonist 12&-18, GLP1R ag 26%&6%, D3 antag 12, GLP-1R inv ag 46%[activator] and PTHR1 agonist -78%[inhibitor].
For CCCCNc1ccc(C(=O)O)cc1 the results were DRD3 agonist -10, GLP1R ag 7%, D3 antag 12, GLP-1R inv ag 20% and PTHR1 agonist 7%.
Screening COc1ccc(Nc2ncc3c(n2)CC(c2ccccc2)CC3=O)cc1 (stereo not given) returned DRD3 agonist 20, GLP1R ag 2%, D3 antag -19, GLP-1R inv ag 9% and PTHR1 agonist -20%[57.5 µM].
`CCOC(=O)c1c(C)oc2ccc(O)cc12` gave DRD3 agonist -3, GLP1R ag 22%, D3 antag -1, GLP-1R inv ag 34%[activator] and PTHR1 agonist inactive.
For O=C1NC(=S)SC1=Cc1ccccn1 the results were DRD3 agonist 5, GLP1R ag -11%, D3 antag -3, GLP-1R inv ag 18% and PTHR1 agonist inactive.

Fetched one by one from above, five records:
For C#C[C@]1(O)CC[C@H]2[C@@H]3CCC4=Cc5oncc5C[C@]4(C)[C@H]3CC[C@@]21C the results were DRD3 agonist 12&-18, GLP1R ag 26%&6%, D3 antag 12, GLP-1R inv ag 46%[activator] and PTHR1 agonist -78%[inhibitor].
For Cc1ccc2nc(-c3ccc(NS(=O)(=O)c4ccc(F)cc4)cc3)sc2c1 the results were DRD3 agonist 10, GLP1R ag 7%, D3 antag 33, GLP-1R inv ag inconclusive and PTHR1 agonist -15%.
For CC1=C/C(=C(/c2cc(C)c(O)c(Br)c2)c2ccccc2S(=O)(=O)O)C=C(Br)C1=O the results were DRD3 agonist -17, GLP1R ag -2%, D3 antag -60*, GLP-1R inv ag inconclusive and PTHR1 agonist -1%.
Screening Cc1cc2ncn(CCCCOc3ccccc3)c2cc1C returned DRD3 agonist 17&28, GLP1R ag 11%, D3 antag -14, GLP-1R inv ag 10µM* and PTHR1 agonist -17%.
For COc1ccc(Cn2cc(C(=O)O)c(=O)c3ccccc32)cc1 the results were DRD3 agonist 6, GLP1R ag 8%, D3 antag -6, GLP-1R inv ag -10% and PTHR1 agonist inactive.
